Screening data from PubChem BioAssay.
VDR inhibitor: vitamin D3 receptor (human) inhibition. P11473. VDR-SRC2-3 peptide fluorescence polarization, 2 h. Potency, µM, for the others: max response, negative = inhibition, hits mostly inhibitors. hit rate 0.93% among 400,000. AID 504847; active means well fitted inhibition curve with a large enough effect; inconclusive means small, poorly fitted or top-dose-only effect, or another doubt; inactive means no such curve, though single readings can be large or run the other way; further: series mostly up to about 120 µM
Target sequence (P11473 whole entry, looked up): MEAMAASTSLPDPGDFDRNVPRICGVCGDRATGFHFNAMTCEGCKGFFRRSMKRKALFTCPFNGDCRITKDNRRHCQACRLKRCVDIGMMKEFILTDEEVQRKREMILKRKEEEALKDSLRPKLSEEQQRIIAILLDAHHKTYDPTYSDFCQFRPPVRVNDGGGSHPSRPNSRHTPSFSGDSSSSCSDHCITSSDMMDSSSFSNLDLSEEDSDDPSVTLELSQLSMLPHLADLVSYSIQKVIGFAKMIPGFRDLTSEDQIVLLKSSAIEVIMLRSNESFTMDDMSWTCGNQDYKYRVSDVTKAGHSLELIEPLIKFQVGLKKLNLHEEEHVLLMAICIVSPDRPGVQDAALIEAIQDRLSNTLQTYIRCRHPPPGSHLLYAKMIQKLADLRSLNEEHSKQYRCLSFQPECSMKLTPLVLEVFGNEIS
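Fluorescence polarization assay of small-molecule disruption of VDR binding to coregulator peptide SRC2-3. Compounds and controls pin-transferred, then read after 2 h incubation at ambient room temperature.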
An asterisk follows results filed as active; ? = inconclusive; & = joins results of further samples; [ ] = dose if it differs, or a comment. On the % scale 0 is the no-effect control and ±100 the full control effect; potency means the concentration at half of the fitted maximal effect.

SMILES	VDR inhibitor
CN(CC(CC(=O)O)c1ccccc1)S(=O)(=O)c1ccc(Br)cc1 (stereo unspecified)	-10%
CCC(=O)Nc1ccc(Oc2ccc3c(c2)C(=O)N(c2ccc(O)cc2)C3=O)cc1	7%
CC(C)(C)c1ccc(C(=O)NCC(c2cccs2)S(=O)(=O)c2cccs2)cc1 (stereo unspecified)	10%
CC(=O)c1cc(C#N)c(N2CCOCC2)nc1C	-10%
Cc1nn(C)c(C)c1CCNC(=O)Nc1cccc(Cl)c1C	-6%
O=C(NCC(c1cccs1)N1CCOCC1)c1cnc(Cl)c(Cl)c1 (stereo unspecified)	3%
Cc1cc(N2C(=O)CC(N3CCN(c4ccc(C(=O)c5cccs5)cc4)CC3)C2=O)no1 (stereo unspecified)	17%
O=C(Nc1ccccc1)[C@@H]1[C@@H]2C(=O)N(c3ccc(F)cc3)C(=O)[C@@H]2[C@H]2C=CC=NN21	6%
O=C(COc1ccc([N+](=O)[O-])cc1)Nc1cc(S(=O)(=O)N2CCCCC2)ccc1N1CCCCC1	-14%
CCOC(=O)Cn1nnnc1CN(CCc1ccccc1)Cc1cc2cc(CC)ccc2[nH]c1=O	16%
Cc1nn(-c2ccccc2)c2[nH]c(=O)c(CNCC3CCCO3)cc12 (stereo unspecified)	2%
COCc1cc(C)nc(OCC(=O)N/N=C/c2ccc(-c3cc([N+](=O)[O-])ccc3Cl)o2)c1C#N	-16%
NC(=O)/C(=C\c1ccco1)NC(=O)c1ccc(Br)o1	-6%
CN1C(=O)c2cccc3c(S(=O)(=O)Nc4ccccc4F)ccc1c23	9%
O=C(N1CCCCC1)N1CCC(c2nc3ccccc3[nH]2)CC1	6%
COC(=O)CC1C2(C)CC34OC5(C)O[C@@]6(C7/C(=C(/OC)C(C)C)C(=O)OC(c8ccoc8)[C@@]7(C)C(OC(=O)C(C)C)C(OC)[C@]6(O5)[C@@]13C)C(OC)[C@]4(OC)C2OC(C)=O (stereo partly specified)	-21%
COc1ccc2cc(CN(CCO)C(=O)c3ccccc3F)c(=O)[nH]c2c1	-10%
COc1cccc(-c2cc(C(=O)Nc3ccc(C)cc3)[nH]n2)c1	-3%
CCOc1ccc(NS(=O)(=O)c2cc(C(=O)NCCN3CCOCC3)ccc2C)cc1	6%
Cc1cccc(N(CC(=O)NC2CC2)S(=O)(=O)c2ccc(Cl)cc2)c1	-7%
O=C(COc1ccc(-c2ccccc2)cc1)N1CCN(C(=O)c2cccnc2)CC1	15%
COc1ccc(C)cc1NC(=O)CC1COc2ccccc2O1 (stereo unspecified)	14%
O=CN1CCN(C(=O)CN2C(=O)c3ccccc3C2=O)CC1	-1%
NC(=O)N/N=C/c1cc(F)cc(F)c1	-5%
Cc1oc(-c2cc(F)ccc2F)nc1CN1CCCN(C(=O)c2ccco2)CC1	-5%

Next section:
SMILES	VDR inhibitor
O=C(Nc1cc(Cl)cc2c1-c1ccc(Cl)cc1C2O)C(Cl)Cl (stereo unspecified)	-5%
Cc1ccccc1N1CC(C(=O)Nc2ccc(S(=O)(=O)N3CCOCC3)cc2)CC1=O (stereo unspecified)	41%[activator]
Cc1ccc2nc(CSc3nc(C)nc4c3oc3ccccc34)[nH]c2c1	10%
CC(C)COc1ccc(C(=O)Nc2cc(S(=O)(=O)N3CCOCC3)ccc2N2CCCC2)cc1	8%
CCOC(=O)Cn1nnc(-c2ccc(S(C)(=O)=O)cc2)n1	7%
CCOC(=O)c1cccc(NC(=O)CCn2cccc2)c1	22%
Cc1c(CN2CCC(n3nccc3NC(=O)c3cccc(F)c3)CC2)cnn1C	-5%
COc1cccc(CC(NC(C)=O)C(=O)NC2CCN(S(=O)(=O)c3cccc4ccccc34)CC2)c1 (stereo unspecified)	2%
O=C(CNC(=O)c1ccco1)NCC(=O)OCC(=O)c1ccc(Cl)c([N+](=O)[O-])c1	3%
CCOc1ncccc1C(=O)Nc1nnc(C)s1	-7%
Cc1ccnn1CC(=O)N/N=C/c1ccc2c(c1)OCO2	-5%
[O-][N+]1=C(c2cccs2)CN(O)C1	3%
COc1cc(NC(=O)c2cccs2)c(C(=O)OCC(=O)NC(=O)NCc2ccccc2)cc1OC	-5%
[O-][n+]1onc2c1CCc1c-2nc(-c2ccccc2)n1OCc1ccccc1	-4%
C=CCn1c(CC(=O)Nc2cccc(OC)c2)nnc1SCC(=O)NC1CCCCC1	4%
CCc1nnc(NC(=O)c2ccc(S(=O)(=O)N3CCCC(C)C3)cc2)o1 (stereo unspecified)	-5%
CCc1cccc(CC)c1NC(=S)NCCc1c(C)[nH]c2ccc(C)cc12	-9%
Cc1ccc(S(=O)(=O)N2CCN(C(=O)CN3C(=O)NC4(CCCCC4)C3=O)CC2)c(C)c1	-6%
CCOc1ccc(CCNC(=O)COC(=O)c2ccc(C)c([N+](=O)[O-])c2)cc1OCC	-14%
CS(=O)c1ccc(-n2c(=O)n(Cc3ccccc3)c(=O)c3[nH]cnc32)cc1 (stereo unspecified)	6%
Cn1c(C(=O)N2CCC(C(N)=O)CC2)cc2cc(Cl)ccc21	-2%
Cc1ccc(NC2=CC(=O)C(=O)c3ccccc32)c(C)c1	-18%
N#Cc1nc(N)nc(N2CCCCC2)n1	-12%
O=C1CSC(c2ccccn2)N1c1ccc(F)cc1F (stereo unspecified)	-8%
CC1CCCC(NC(=O)CN2C(=O)COc3ccccc32)C1C (stereo unspecified)	5%

The list continues.
SMILES	VDR inhibitor
CN1C(=O)N(C)C2(c3ccccc3)N(C(C)(C)C)C(=O)NC12c1ccccc1 (stereo unspecified)	?
CN(Cc1ccccc1)C(=O)c1oc(=O)c2ccccc2c1-c1ccccc1	9%
NC(=O)C1CCCN(C(=S)NCc2ccc3c(c2)OCO3)C1 (stereo unspecified)	-2%
O=C(N1CCN(c2ccc(F)cc2)CC1)C1(c2cccs2)CCOCC1	-8%
CCOc1ccccc1-n1ccnc(NCc2ccc(F)cc2)c1=O	-4%
CC1C(=O)C(C)C(c2cccs2)NC1c1cccs1 (stereo unspecified)	-17%
COc1ccc(C2(C)NC(=O)N(CC(=O)NC3CCCC3)C2=O)cc1OC (stereo unspecified)	1%
O=S(=O)(NNc1ccc(F)cc1F)c1cccc(Cl)c1	-27%
CCCNC(=O)c1cc(OC)c(OC)cc1[N+](=O)[O-]	-5%
c1ccc(CSc2nnc(SCc3ccccn3)s2)nc1	5%
CCOC(=O)CNC(=O)c1sc(NC(=O)c2ccccc2F)nc1C	-9%
CCC1(C)Cc2ccccc2-c2nc[nH]c(=O)c21 (stereo unspecified)	-13%
CCOC(=O)c1ccc(-n2c(C)nc3c(cnn3-c3ccc(Cl)cc3)c2=O)cc1	-1%&-3%
O=C(COC(=O)CCc1ccc(S(=O)(=O)N2CCCCC2)cc1)Nc1ccc2c(c1)OCO2	-2%
COc1cc(/C=N/NC(=O)[C@H](Cc2c[nH]c3ccccc23)NC(=O)OCC(C)C)cc([N+](=O)[O-])c1O	-13%
CCCCCCn1c(N2CCC(C(N)=O)CC2)nc2c1c(=O)[nH]c(=O)n2C	2%
CCOC(=O)CNC(=O)c1ccccc1Br	2%
Cc1ccc2c(c1)C1NC(=S)NC(C)(O2)C1C(=O)Nc1ccc(Cl)cc1 (stereo unspecified)	-27%
COc1ccc(/C=C(\NC(=O)c2ccccc2Cl)C(=O)NCCCC(=O)O)cc1	12%
CC(=O)NC(CCS(C)(=O)=O)C(=O)Nc1ccc2c(c1)OCCO2 (stereo unspecified)	-8%
Nc1c(Cl)cnn(-c2ccccc2)c1=O	5%
COC1=CC(=O)C[C@@H](C)[C@]12Oc1c(Cl)c(OC)cc(OC)c1C2=O	-3%&2%&6%
CCOC(=O)CCC(=O)NNC(=O)c1ccc(NC(=O)c2ccccc2)cc1	-25%
COc1ccc(NC(=O)C2CCCC2)cn1	7%
C[C@]12C=CC(=O)N[C@@H]1CC[C@@H]1C2CC[C@]2(C)C(C(=O)Nc3cc(C(F)(F)F)ccc3C(F)(F)F)CC[C@@H]12 (stereo partly specified)	12%

Next structures
SMILES	VDR inhibitor
COc1ccc(C2NN=C(c3ccc(C)cc3)S2)cc1 (stereo unspecified)	-18%
COc1cccc(/C=C/C(=O)NCc2ccc3c(c2)OCO3)c1	20%
Cn1c(=O)c2c(nc(CN3CCOCC3)n2CC(=O)c2ccccc2)n(C)c1=O	4%
O=C(COc1ccccc1)NC1CCCCC1	8%
COc1nc2c(s1)C(=O)NCCC2	-7%
CCC/C(=N\NC(=O)CCC(=O)NCc1ccccc1)c1ccccc1	7%
Cc1ccc(NS(=O)(=O)c2c(C)[nH]c(=O)[nH]c2=O)c(Br)c1	-9%
C[C@@H]1CN([C@H](C)CO)C(=O)c2cc(NS(=O)(=O)c3cccs3)ccc2O[C@H]1CN(C)Cc1ccccc1	-9%
Cc1cc(C(=O)O)cc(Br)c1N	17%
CCNc1nc(NCC)nc(NC(N)=S)n1	-6%
COc1cc2c(=O)n(CC3CCCO3)c(=O)n(CC(=O)Nc3ccccc3)c2cc1OC (stereo unspecified)	?
Cc1cc(C(=O)N[C@@H](c2ccccc2)[C@]2(C)C[C@H]2[C@@H](C)C(=O)Nc2ccc3ccccc3c2)no1	-11%
Cc1ccc(C(=O)Nc2cccc(C(=O)N3CCN(C)CC3)c2)cc1	3%
COc1ccc(OC)c(NC(=O)Cc2csc(NC(=O)Nc3ccccc3OC)n2)c1	-13%
NS(=O)(=O)c1ccc(NC(=O)COC(=O)C2CC(=O)N(Cc3ccccc3)C2)cc1 (stereo unspecified)	-16%
CCOc1ccc(C(=O)Nc2ccc(C(=O)N3CCOCC3)cc2)c(OCC)c1	-13%
O=[N+]([O-])c1ccc2nc(-c3ccccc3)cc(-c3ccccc3)c2c1	4%
O=C(N/N=C/c1ccccc1)C(O)c1ccccc1 (stereo unspecified)	-3%
Nc1ccc(N2CCOCC2)c(S(=O)(=O)Nc2cc(Cl)ccc2Cl)c1	-13%
Cc1ccc2nc3c(cc(C(=O)NC4CCCC4)c(=N)n3C3CCCCC3)c(=O)n2c1	-29%
Cc1noc(C)c1-c1nc(N2CCN(C)CC2)c2ccccc2n1	-14%
COc1ccc(OC)c(NC(=O)Cn2cc(C(=O)c3ccco3)c3ccccc32)c1	-11%
Cc1ccccc1N=C/C=C1\N(C)c2ccccc2C1(C)C	10%
O=C(O)CCc1ccc(-c2ccc(Cl)cc2)n1Cc1ccco1	14%
Cc1ccc(CCNS(=O)(=O)c2c(C)nc3sc(C)c(C)n3c2=O)cc1	-1%

(further entries)
SMILES	VDR inhibitor
C=CCNC(=O)c1c2c(nc3ccccc13)-c1ccccc1CC2	-7%
O=C(CNC(=O)c1ccccc1)OCC(=O)c1c[nH]c2ccccc12	3%
COc1ccc(CCC(=O)Nc2ccc(Cn3ccnc3)cc2)cc1	8%
Cc1ccc(N2C(=O)N(CC(=O)c3cc(C)ccc3C)C(=O)C2C)cc1 (stereo unspecified)	-10%
C/C(=N\NC(=O)c1ccncc1)c1cccs1	-19%
CCOc1ccc(-c2nc(CN3CCCCC3CCn3cccn3)c(C)o2)cc1 (stereo unspecified)	11%
O=C(CNC(=O)c1ccc(S(=O)(=O)N2CCCC2)cc1)N/N=C/c1c(Cl)cccc1Cl	-13%
Cc1ccc(C2CC(=O)N(Cc3ccccc3)c3c2c(C)nn3-c2nc(C)cc(C)n2)cc1 (stereo unspecified)	1%
CCN(CC(=O)Nc1ccc2c(c1)OCCO2)C(=O)/C=C/c1ccc(F)cc1	7%
COCCNC(=O)c1ccc(N2CCC3(CC2)OCCO3)c([N+](=O)[O-])c1	-6%
CCc1nc(SCCO)c2oc3ccccc3c2n1	12%
Cc1cccc(Cn2c(=O)c3c(nc4n3CCN4Cc3ccco3)n(C)c2=O)c1	-7%
CC1CC(C)CN(S(=O)(=O)c2ccc(NC(=O)c3ccc(=O)[nH]c3)cc2)C1 (stereo unspecified)	15%

Not all compounds are listed; count on the stated rates, not on these rows.
